NPYLR7 agonist: mosquito NPYLR7 agonism | HEK293T NPYLR7/Galpha15, GCaMP6s calcium fluorescence | activation, % at 10 µM | 270,000 tested, 0.15% active | AID 1259423; in the data active means activation above about 40%;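 further: 0% = vehicle and 100% = reference agonist at the receptor; some compounds past the cut are filed as inactive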
NPYLR7 agonist max-min: also measured in NPYLR7 agonist; calls as there; activation, %; measured here: Max-Min RFU normalised activation; some inactives read as strong as hits;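 span of the calcium signal over five minutes; 0% = vehicle and 100% = native peptide agonist; compound fluorescence can raise it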
An asterisk follows results filed as active.

Value order – NPYLR7 agonist, NPYLR7 agonist max-min
Cc1cc(N2CCN(S(=O)(=O)c3ccc(F)cc3)CC2)n2c(nc3ccccc32)c1C#N
→ 1, 3
Cn1c(=O)c2c(ncn2Cc2cc3c(cc2Br)OCO3)n(C)c1=O
→ 1, 4
COc1ccc(CNC(=O)c2cn(Cc3ccccc3C)c(=O)s2)cc1OC
→ 3, 1
Cc1c(Cl)cccc1NC(=O)c1cnc2c(C)csc2c1
→ -3, -5
COc1ccc(CN(Cc2ccco2)C(=O)c2cccc(Br)c2)cc1OCc1nc(CO)cs1
→ 2, 10
Cc1ccsc1/C=N\Nc1ccc2c(Cl)cc(Cl)c(O)c2n1
→ -5, -9
CCn1nc(-c2ccccc2)c(-c2ccccc2)c(C(=O)Nc2ccccc2C#N)c1=O
→ -3, 17
COCCNC(=O)c1cc(NC(=O)NC2CCCCC2)ccc1N1CCC(Cc2ccccc2)CC1
→ -4, 9
Cc1nc(-n2nc(-c3cccs3)cc2NC(=O)c2ccc(Br)o2)[nH]c(=O)c1C
→ -1, -3
CNC(=S)N1CCn2cccc2C1c1ccc(C)cc1 (stereo unspecified)
→ 3, 1
Cc1ccc(-n2nnc(-c3nnc(-c4ccco4)o3)c2C)cc1
→ 5, 4
Cc1ccc(-c2cc3c(=O)n(CC(=O)NC4CCCCC4)ccn3n2)cc1
→ 8, 6
O=C(O)c1ccc(-c2ccccc2OC(F)(F)F)cc1F
→ 8, 6
CC1=NC2=C(C(=O)CCC2)C(c2ccncc2)C1C(=O)OCCOc1ccccc1 (stereo unspecified)
→ 0, -2
COc1ccc(C(=O)Oc2ccc(-c3nc4cc(C)ccn4c3NC(C)(C)CC(C)(C)C)cc2OC)c(OC)c1
→ -2, 3
COc1ccc(-c2noc(CN3CCC[C@H]3C(N)=O)n2)cc1
→ 0, -2
O=C(Nc1ccccc1C(F)(F)F)c1cc2nc(-c3ccc(Br)cc3)cc(C(F)(F)F)n2n1
→ 7, 3
CC(N)=C(C#N)C(=O)COC(=O)c1cc2c(s1)CCC2
→ -2, -3
CC(C)(C)NC(=O)NC(=O)CSc1nnc(-c2ccccc2Br)o1
→ 7, 0
CC1(C)CCC(C)(C)c2cc(NC(=O)c3ccc(C(=O)O)cc3)ccc21
→ -4, -7
O=C(CSc1nc(C(F)(F)F)cc(=O)[nH]1)NCc1ccc(F)cc1
→ 4, 1
CCOC(=O)C1(C)CCN1C(=O)c1ccc(C(F)(F)F)nc1C (stereo unspecified)
→ 0, -4
CSc1nnc2n(C)c(=O)c3c4c(sc3n12)COC(C)(C)C4
→ 5, 5
C=CCN(CCC(=O)NC(N)=O)Cc1ccccc1
→ 6, 0
COc1ccc(-c2nc3ccc(C)cn3c2NC(=O)CCC2CCCC2)cc1
→ -5, -4
Cc1nc(C(=O)N(C)Cc2ccccc2-n2cccn2)cs1
→ 7, 5
COc1cc(-c2n(C)c3ccccc3[n+]2C)cc(OC)c1OC
→ 18, 11
O=C(NCc1ccncc1)c1coc(CN(Cc2ccc(F)cc2)Cc2ccc(Cl)cc2Cl)n1
→ 6, 12
Cc1nc2c(o1)C1(C(=O)N2C)c2ccccc2N(c2ccccc2)C(=N)C1C#N (stereo unspecified)
→ -8, -9
Cc1ccccc1CN1C[C@@H]2C[C@@H](c3cc4ccccc4o3)N3CCC[C@@]23C1=O
→ 1, -1
COc1ccc(N=Cc2c(Nc3ccccc3)nc3c(C)cccn3c2=O)cc1
→ -7, -9
Cc1ccccc1CN(C)S(=O)(=O)c1ncn(C)c1Cl
→ 1, -2
CN(Cc1nc(-c2ccc(F)cc2)no1)CC12CC3CC(CC(C3)C1)C2
→ -3, -5
CN(C)CCCN1C(=O)C(O)=C(C(=O)c2cccs2)C1c1cccc([N+](=O)[O-])c1 (stereo unspecified)
→ 1, -1
COc1ccc2oc(=Nc3cccc4ccccc34)c(-c3nc4ccccc4[nH]3)cc2c1
→ 13, 9
CCOC(=O)c1c(-c2ccccc2)csc1N=Cc1nc(-c2ccco2)oc1O
→ 141*, 193*
Cc1c(NS(=O)(=O)N2CCC(C)CC2)c(=O)n(-c2ccccc2)n1C
→ -3, -6
[O-]/[N+](Cc1ccccc1)=N/OCc1ccccc1
→ -7, -10
Cc1ccc2[nH]cc(-c3cncc(C(=O)O)c3)c2c1
→ 0, -4
O=C(Cc1nc(-c2ccncc2)n[nH]1)N1CCOCC1
→ 5, 3
CC(C)(C)C(=O)CN1CCC(C(=O)NC(c2ccccc2)c2cnccn2)CC1 (stereo unspecified)
→ -2, 8
CCOc1ccc(-c2[nH]ncc2-c2nc(-c3cc(OC)c(OC)c(OC)c3)no2)cc1Cl
→ -1, -3
N#Cc1c[nH]c(=O)c(C#N)c1Nc1ccccc1
→ 1, -1
O=C(c1cccc(Nc2ccnc(N3CCN(c4ccccc4)CC3)n2)c1)N1CCCC(CO)C1 (stereo unspecified)
→ -2, 9
Cn1c(Nc2ccccc2)nc2cnc(Nc3cccc(O)c3)cc21
→ 9, -1
Cc1c(C(=O)NCc2cccs2)sc(=O)n1Cc1ccc(F)c(Cl)c1
→ 17, 8
CCSC1(SCC)N=C(N)C2(C#N)C(c3ccccc3)N=C(C)CC12C#N (stereo unspecified)
→ 9, 3
CCc1c(C)nc(-n2nc(C)cc2NC(=O)c2cc3ccccc3o2)[nH]c1=O
→ 12, 6
Cc1ccc(C)c(CSc2nc3c(c(=O)n2-c2ccc([N+](=O)[O-])cc2)SCC3)c1
→ 1, 10
COCC(C)(C)NC(=O)CCN(C(=O)OC(C)(C)C)C(C)C
→ 6, 5

(list continues)
Value order – NPYLR7 agonist, NPYLR7 agonist max-min
Cc1nc(-c2ccccc2)sc1C(=O)Nc1ccc(SCC(=O)N2CCCC2)nn1
→ -3, -3
Nc1c(C(=O)c2cccc3ccccc23)ccc2c1C(=O)c1ccccc1C2=O
→ -3, -8
CC(NC(=O)CCc1nc2ccccc2s1)C1CC2CCC1C2 (stereo unspecified)
→ -22, -21
CCCC(CCC)C(=O)Nc1cc(-c2cn3cccnc3n2)ccc1C
→ 8, 10
COc1ccccc1S(=O)(=O)Nc1ccc2c(c1)CN(C)C(=O)N2
→ -4, -8
CC(=O)c1ccc(Oc2cc(C)nc(C)n2)cc1
→ 9, 5
O=C(Nc1ccccc1F)c1ccc2c(=O)n3c(nc2c1)CCCCCC3
→ 1, 1
CCOC(=O)C1CCCN(C(=O)c2ccc(CSc3nc(N4CCN(Cc5ccc6c(c5)OCO6)CC4)cc(C(C)(C)C)n3)cc2)C1 (stereo unspecified)
→ 7, 17
COc1ccc(C(=O)N2CCN(c3ncccc3C(=O)NCc3ccc4c(c3)OCO4)CC2)cc1F
→ 9, 13
N#Cc1cc([N+](=O)[O-])ccc1NCCCN1CCOCC1
→ 1, 2
Cc1cc(C)cc(NC(=O)c2cc3cc([N+](=O)[O-])ccc3oc2=O)c1
→ 7, 6
CC(C)Cc1ncc2c(n1)CN(C(=O)c1cnc3c(c1)ncn3C)C2
→ 14, 9
CC1(c2ccc(C#N)cc2)NC(=O)N(CC(=O)C23CC4CC(CC(C4)C2)C3)C1=O (stereo unspecified)
→ 7, 3
CCC(CC)(CC(=O)Nc1ccc2nc(C(C)(C)C)[nH]c2c1)C(=O)O
→ 4, 5
COc1ccc(-c2nc(COc3c(OC)cccc3C(N)=O)co2)cc1
→ 0, -1
O=C1C(SC2CCCC2)CCN1C1CC1 (stereo unspecified)
→ 16, 12
CN1CCN(c2cc(C(F)(F)F)nc(SCc3ccc(C(=O)NCc4ccccn4)cc3)n2)CC1
→ 12, 13
COC(=O)c1cc(Nc2cc(C)ccc2OC)c2cc(Cl)ccc2n1
→ -4, -5
CN(C)c1ccc(NC(=O)C2CCC2)cc1CN(CC1CC1)C(=O)c1ccco1
→ -4, 1
Clc1cccc2c3c([nH]c12)-c1nonc1CC3
→ 0, -3
COc1ccccc1-c1ccc(N2CCC(C(=O)N3CCN(c4ccccc4OC)CC3)CC2)nn1
→ -12, -12
COc1cccc(Oc2cc(N3CCCC3)ncn2)c1
→ 15, 12
O=C(CCc1ccco1)N1CC2OCCN(Cc3ccccc3)C2C1 (stereo unspecified)
→ -5, -6
CCCCCCCCC(=O)N1CCc2nc(Cc3cccc(F)c3)nc(N3CCOCC3)c2C1
→ -4, 7
O=C(NCc1noc(-c2ccco2)n1)c1cccc2ccnn12
→ 8, 7
CCCn1c(O)c(N=NC(=O)c2cc3ccccc3cc2O)c2ccccc21
→ -6, -8
Cc1ccc(Cl)cc1-n1c(SCc2ccccc2)nnc1C(C)NC(=O)Nc1cccc(Cl)c1 (stereo unspecified)
→ -2, 2
N#CCOc1ccccc1C1NC(=S)NC(c2ccccc2)=C1C(=O)c1ccccc1 (stereo unspecified)
→ 9, 8
Cc1cccc(N2C(=O)c3cccc([N+](=O)[O-])c3C2=O)n1
→ 7, 1
Cc1ccc2cc(CCNC(=O)Cc3ccccc3)c(=O)[nH]c2c1C
→ 4, 1
COc1ccc(C(=O)N(C)Cc2ccc(C)o2)cc1OC1CCN(C(C)=O)CC1
→ 8, 5
CC1CN(C(C)(C)CNC(=O)C2CCN(S(=O)(=O)c3ccc4ccccc4c3)CC2)CC(C)O1 (stereo unspecified)
→ 1, 0
COCc1c(C(=O)Nc2cccc3cccnc23)oc2ccccc12
→ 1, 7
Oc1ccc(Nc2nccc3[nH]c(-c4cccc(F)c4)cc23)cc1
→ 7, 4
COc1cccc(CN(C)CC(=O)NC(=O)Nc2ccc3c(c2)OCCO3)c1
→ 2, 23
Cc1ccc(NC2CCCN(C(=O)c3cc4ccccc4o3)C2)cc1C (stereo unspecified)
→ -2, 1
CN(C)c1ccc(N)cc1CN(CC1CC1)C(=O)c1ccccc1Cl
→ -5, 0
C1CN(c2nc3nonc3nc2N2CCOCC2)CCO1
→ 14, 5
O=C(O)CN1C(=O)/C(=C\c2cc(Br)ccc2OCc2ccc(Cl)cc2)SC1=S
→ -3, 6
COc1cccc(N2CC(c3nc4ccccc4n3CCOc3ccccc3OC)CC2=O)c1 (stereo unspecified)
→ 0, -4

Copied from the list:
`COc1ccc(C(=O)N(C)Cc2ccc(C)o2)cc1OC1CCN(C(C)=O)CC1` in NPYLR7 agonist max-min has 5
`CC1CN(C(C)(C)CNC(=O)C2CCN(S(=O)(=O)c3ccc4ccccc4c3)CC2)CC(C)O1` (stereo unspecified) in NPYLR7 agonist has 1

The listing continues:
Value order – NPYLR7 agonist, NPYLR7 agonist max-min
O=C(c1cccc(C(F)(F)F)c1)C1CCCN(Cc2cnc(N3CCOCC3)s2)C1 (stereo unspecified)
→ 5, -1
O=C(CN1CCN(C(=O)c2ccccc2)CC1)Nc1ccccc1Cl
→ 1, 0
COc1cc(C2c3[nH]c4ccccc4c3CCN2Cc2ccco2)ccc1F (stereo unspecified)
→ 5, 1
Cc1ccccc1-c1onc(C)c1C(=O)NCc1ccncc1
→ 8, 6
CC(=O)N1CCC[C@H]1C(=O)N1CCC(Cc2cccc(C(=O)O)c2)CC1
→ 5, 4
CC(C)Cc1ccc(CN2CCCC(NC(=O)C3CCN(Cc4ccco4)CC3)C2)cc1 (stereo unspecified)
→ 5, 3
Cc1cc(C(=O)N2CCN(c3nc4c(F)cc(F)cc4s3)CC2)on1
→ 8, 11
CC(C)=CCC/C(C)=C/CNC(=O)Nc1cc(Cl)ccc1Cl
→ -8, -18
Cc1cc(F)ccc1S(=O)(=O)N1CCC2(CC1)OCCN2S(=O)(=O)c1cccs1
→ -1, -3
N#CC1=C(NC(=O)Cc2ccccc2)c2ccccc2CC12CCCCC2
→ 2, -4

4 structures out of the list, arranged by number of heavy atoms, descending:
Value order – NPYLR7 agonist, NPYLR7 agonist max-min
O=C(NCc1noc(-c2ccco2)n1)c1cccc2ccnn12
→ 8, 7
COCC(C)(C)NC(=O)CCN(C(=O)OC(C)(C)C)C(C)C
→ 6, 5
Cc1ccccc1CN(C)S(=O)(=O)c1ncn(C)c1Cl
→ 1, -2
Cc1ccc2[nH]cc(-c3cncc(C(=O)O)c3)c2c1
→ 0, -4

(listing goes on)
Value order – NPYLR7 agonist, NPYLR7 agonist max-min
CC1CCCC(NC(=O)c2cc3c(s2)CSC3)C1C (stereo unspecified)
→ 9, 5
Cc1ccc(Cn2c(=O)c3c(nc4n(CCCN5CCOCC5)c(C)c(C)n34)n(C)c2=O)cc1
→ 9, 8
CN(C)CCCN(C(=O)c1cccc2ccccc12)c1nc2c(F)cc(F)cc2s1
→ 4, 2
OCCC1(NCc2cccc3cccnc23)CCOCC1
→ 12, 8
CCCN(CCC)c1nc(NC(C)(C)C)nc(N2CCOCC2)n1
→ 0, -4
CCC(C(=O)OC)n1cnc2c(nnn2Cc2ccc(Cl)cc2)c1=O (stereo unspecified)
→ 7, 7
Cc1cc2nc(-c3cccs3)cc(-c3nnc(SCc4ccc(F)cc4Cl)n3C)c2cc1C
→ 1, 6
O=C1N(Cc2cccc(Cl)c2)C[C@@H]2C[C@@H](c3cccs3)N3CCC[C@@]123
→ 12, 15
Cc1ccc(C(=O)NCCN2CCCCCC2=O)s1
→ 5, 2
CC(C)N(Cc1c(-c2ccc(F)cc2)noc1N1CCN(C)CC1)C(=O)c1cccc(F)c1
→ -6, -3
COc1ccc(-c2c(NC(C)=O)n(C)c3ccccc3c2=O)cc1OC
→ -3, -3
Cc1ccoc1C(=O)N1CCCC(NS(=O)(=O)c2ccccc2)C1 (stereo unspecified)
→ 7, 7
C=CCn1c(-c2ccccc2)csc1=NNc1ccc([N+](=O)[O-])cc1
→ 4, 7
O=C(NCc1cccc2ccccc12)NCc1nnnn1-c1ccccc1
→ -5, -5
CC(C)(C)c1nc(CS(=O)(=O)Cc2cc(Cl)c3c(c2)OCCO3)no1
→ 6, 4
Cc1noc(-c2ccc(C(C)(C)C)cc2)c1C(=O)NCCc1cnc[nH]1
→ 1, 10
O=C(c1cn(C/C=C/c2ccccc2)nn1)N1CCCC1
→ 4, 1
O=C(O)c1ccccc1-n1c(-c2ccccc2)c[n+]2c1CCc1ccccc1-2
→ 1, 0
COCCCN(Cc1c(-c2ccccc2)noc1N(C)C1CCCCC1)C(=O)c1cccc(OC)c1
→ 3, 7
CCCCCNc1nc(C(C)C)c2c(c1C#N)CC(C)(C)OC2
→ 1, -2
COc1ccc(N(CCC(N)=O)C(=O)CSc2ccc3c(c2)CCC3)cc1
→ 7, 1
Cc1ncc(CN2CCN(Cc3cccc(F)c3)CC2)n1C
→ 12, 10
CN(C)c1nc(-c2cc3cc(Cl)ccc3o2)cs1
→ 5, 4

High-throughput results from PubChem BioAssay.

An excerpt; rates above refer to the full screens.
